Vaccinia stage = Vaccinia orthopox stage-specific inhibition; Vaccinia-infected cells, mCherry/Venus stage reporter fluorescence; hits give low values; some inactives read as strong as hits; activity change (mCherry), % (concentration not given with the values); AID 1053133; 89,000 compounds, 0.01% hits;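 active = mCherry past -33% and 40 or more points under the early reporter, replicates agreeing; inconclusive = past -33% without that gap or agreement; tested in A549 cells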;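 also: scaled between vehicle wells and reference inhibitor wells; 23 nL library stock went into each well; one replicate is shown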
Vaccinia stage Venus = also measured in Vaccinia stage; calls as there; activity change (Venus), %; measured here: Venus reporter, other viral stage;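 negative = less Venus signal; first of two replicates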
Active calls of the source: *; ? = inconclusive; . = no result given; & = joins results of further samples. Some of the compounds tested. The share of hits here may be higher or lower than overall.

Values run as follows: Vaccinia stage, Vaccinia stage Venus
1. C[C@@H]1CN([C@H](C)CO)C(=O)c2cc(/C=C/c3ccccc3)cnc2O[C@H]1CN(C)Cc1ccccc1F
 : -29, -17
2. COc1cccc(NC(=O)N2CC(=O)N3[C@H](CO)[C@@H](c4ccc(C#CC5CCCCC5)cc4)[C@H]3C2)c1
 : -30, -29
3. COC(=O)C[C@@H]1C=C[C@@H](NS(=O)(=O)c2ccc(OC)cc2)[C@@H](CO)O1
 : -6, 2
4. CC(C)NC(=O)N(C)C[C@@H]1OCCCC[C@H](C)Oc2ccc(N(C)C)cc2C(=O)N([C@H](C)CO)C[C@H]1C
 : 12, 11
5. O=S(=O)(c1ccccc1)N1C[C@@H]2N[C@H](C1)C2c1ccc(-c2cccnc2)cc1 (some centres undefined)
 : ?, -21
6. C[C@@H]1CN([C@H](C)CO)C(=O)c2cccc(NS(=O)(=O)c3cn(C)cn3)c2O[C@H]1CN(C)C(=O)Nc1ccc(F)cc1
 : 14, 15
7. C[C@@H]1CN([C@@H](C)CO)C(=O)c2cc(NC(=O)CCN3CCOCC3)ccc2O[C@@H]1CN(C)S(=O)(=O)c1cccs1
 : 5, -3
8. Cc1noc(C)c1C(=O)N(C)C[C@@H]1OCc2ccccc2-c2c(n(C)c3ccccc23)C(=O)N([C@@H](C)CO)C[C@H]1C
 : -3, -7
9. CC(C)NC(=O)Nc1ccc2c(c1)C(=O)N([C@H](C)CO)C[C@@H](C)[C@H](CN(C)Cc1ccc(C(=O)O)cc1)OCCCC[C@@H](C)O2
 : 43, 11
10. C[C@@H]1CN([C@@H](C)CO)C(=O)Cc2cc(NC(=O)Nc3ccc(F)cc3)ccc2O[C@@H]1CN(C)S(=O)(=O)c1ccccc1
 : 1, 7
11. CNC[C@@H]1Oc2cc(Br)ccc2S(=O)(=O)N([C@H](C)CO)C[C@H]1C
 : -4&-10, -5&1
12. COc1cccc(-c2ccc(C3[C@H]4CNC[C@@H]3N4Cc3cncnc3)cc2)c1 (some centres undefined)
 : -8, -18
13. C[C@@H]1CN([C@@H](C)CO)S(=O)(=O)c2ccc(C#CCC3CCCC3)cc2O[C@H]1CN(C)C
 : ?, .
14. CN1CCN(C(=O)C[C@H]2CC[C@H]3[C@@H](COC[C@H](O)CN3Cc3cccc(F)c3)O2)CC1
 : -9, -6
15. C[C@@H]1CN([C@@H](C)CO)C(=O)c2cccc(NC(=O)Nc3ccc(F)cc3)c2O[C@@H]1CN(C)Cc1ccc(C(=O)Nc2ccccc2N)cc1
 : 3, -3
16. Cc1ccc(S(=O)(=O)N(C)C[C@H]2Oc3ccc(NC(=O)Nc4ccc5c(c4)OCO5)cc3C(=O)N([C@H](C)CO)C[C@H]2C)cc1
 : -19, -13
17. C[C@@H]1CN([C@H](C)CO)S(=O)(=O)c2ccc(C3=CCCC3)cc2O[C@@H]1CN(C)Cc1cncnc1
 : 20, 13
18. CC(C)NC(=O)N(C)C[C@@H]1Oc2ccc(NC(=O)Nc3ccc4c(c3)OCO4)cc2C(=O)N([C@H](C)CO)C[C@H]1C
 : 10, 10
19. CC(C)NC(=O)N(C)C[C@@H]1OCCCC[C@H](C)Oc2ccc(NC(=O)Nc3ccccc3)cc2C(=O)N([C@@H](C)CO)C[C@H]1C
 : 16, 2
20. O=C(C[C@H]1CC[C@H]2[C@@H](COC[C@@H](O)CN2Cc2cc(F)ccc2F)O1)N1CCc2ccccc2C1
 : -29, -21
21. C/C=C/c1ccc2c(c1)[C@H]1[C@H](CCN1C(=O)Cc1cccnc1)[C@@H](CO)N2C
 : 9, 11
22. O=C(C[C@@H]1C=C[C@H](NS(=O)(=O)c2ccc(F)cc2)[C@@H](CO)O1)NCc1ccccc1F
 : 7, 5
23. C[C@H]1CN([C@@H](C)CO)C(=O)c2cccc(NC(=O)c3cnccn3)c2O[C@H]1CN(C)Cc1ccc(C(F)(F)F)cc1
 : -10, -2
24. Cc1ccc(S(=O)(=O)N[C@H]2CC[C@@H](CC(=O)NC3CCCCC3)O[C@@H]2CO)cc1
 : 9, 8
25. CN(C)CC(=O)N[C@@H]1CC[C@@H](CCNC(=O)C2CCC2)O[C@@H]1CO
 : 0, 2
26. C[C@H](CO)N1C[C@H](C)[C@H](CN(C)Cc2ccc(C(=O)O)cc2)Oc2ncc(C3=CCCC3)cc2C1=O
 : 19, 4
27. C[C@H](CO)N1C[C@H](C)[C@H](CN(C)S(=O)(=O)c2ccc(Cl)cc2)Oc2ccc(NC(=O)c3ccncc3)cc2C1=O
 : 17, 11
28. Cc1ccc(S(=O)(=O)N(C)C[C@H]2OCCCC[C@H](C)Oc3ccc(NS(=O)(=O)c4ccccc4)cc3C(=O)N([C@H](C)CO)C[C@@H]2C)cc1
 : ?, .
29. C[C@H](O)C#Cc1cnc2c(c1)C(=O)N([C@H](C)CO)C[C@H](C)[C@@H](CN(C)Cc1ccccn1)O2
 : 24, 5
30. CC=Cc1ccc2n(c1=O)C[C@H]1[C@H](CO)[C@@H](C(=O)OC)[C@@H]2N1S(=O)(=O)c1ccccc1C (mixture of isomers)
 : -4, -1
31. C[C@@H]1CN([C@H](C)CO)C(=O)c2cccc(NC(=O)c3ccncc3)c2O[C@H]1CN(C)C(=O)Nc1ccc(F)cc1
 : 1, 13
32. C[C@@H]1CN([C@@H](C)CO)C(=O)c2cccc(NS(C)(=O)=O)c2O[C@H]1CN(C)S(=O)(=O)c1ccc(Cl)cc1
 : 2, 4
33. COc1cccc(NC(=O)Nc2ccc3c(c2)OC[C@@H](C)NC[C@H](C)[C@@H](OC)CN(C)C3=O)c1
 : -1, 10
34. COc1cccc(-c2ccc([C@H]3[C@@H](CO)N4C(=O)CN(C(=O)NC(C)C)C[C@@H]34)cc2)c1
 : 11, 3
35. C[C@@H]1CCCCO[C@@H](CN(C)Cc2ccc3c(c2)OCO3)[C@H](C)CN([C@H](C)CO)C(=O)c2cc(NS(=O)(=O)c3ccc(Cl)cc3)ccc2O1
 : ?, .
36. CCCN1[C@@H]2Cn3c(ccc(-c4ccccc4OC)c3=O)[C@H]1[C@@H](C(=O)NCc1ccccn1)[C@@H]2CO
 : 3, 5
37. CC(C)NC(=O)Nc1cccc2c1O[C@H](CN(C)S(=O)(=O)c1cn(C)cn1)[C@@H](C)CN([C@H](C)CO)C2=O
 : 3, -4
38. O=C(Nc1ccc(C(F)(F)F)cc1)N[C@@H]1CC[C@@H](CCn2cc(C3(O)CCCC3)nn2)O[C@@H]1CO
 : -15, -11
39. COc1ccc(S(=O)(=O)N[C@@H]2CC[C@H](CCNC(=O)CN3CCOCC3)O[C@@H]2CO)cc1
 : 7, 6
40. O=C([C@H]1[C@H](CO)[C@H]2Cn3c(cccc3=O)[C@@H]1N2C(=O)CC1CC1)N1CCc2ccccc2C1
 : 7, 7
41. COCCNC(=O)[C@H]1[C@H](CO)[C@H]2Cn3c(ccc(C4=CCCCC4)c3=O)[C@@H]1N2C(=O)C1CC1
 : 24, 3
42. CNC[C@@H]1OCCCC[C@@H](C)Oc2ccc(NC(=O)Cc3ccccc3)cc2C(=O)N([C@H](C)CO)C[C@@H]1C
 : 16, 8
43. CCCC#Cc1ccc2c(c1)O[C@@H](CN(C)S(=O)(=O)c1cccc(F)c1)[C@H](C)CN([C@H](C)CO)S2(=O)=O
 : 4, 3
44. O=S(=O)(c1ccc(F)cc1)N1CCCCN2[C@@H](CO)[C@H](c3ccc(C#CC4CC4)cc3)[C@@H]2C1
 : ?, .
45. COc1ccc(C#Cc2ccc3c(c2)[C@@H]2[C@@H](CCN2S(=O)(=O)c2ccc(OC)cc2)[C@H](CO)N3C)cc1
 : 29, 0
46. C[C@H]1CN([C@@H](C)CO)C(=O)CCCn2nncc2CO[C@@H]1CN(C)C(=O)c1ccc2ccn(C)c2c1
 : 7, 5
47. COc1cccc(C(=O)Nc2ccc3c(c2)C(=O)N(C)C[C@@H](OC)[C@H](C)CN(CC2CC2)[C@H](C)CO3)c1
 : -16, -8
48. O=C(C[C@@H]1CC[C@@H]2[C@H](COC[C@H](O)CN2Cc2cccc(Cl)c2)O1)N1CCOCC1
 : 4, 4
49. O=C(C1CC1)N1CCCCN2[C@@H](CO)[C@@H](c3ccc(C#CC4(O)CCCC4)cc3)[C@@H]2C1
 : 6, 4
50. C[C@@H]1CN([C@H](C)CO)C(=O)c2cc(NC(=O)CCCN(C)C)ccc2O[C@@H](C)CCCCO[C@@H]1CN(C)Cc1ccncc1
 : 7, 8
51. CCCN(C)C[C@@H]1Oc2ncc(C#Cc3ccc(OC)cc3)cc2C(=O)N([C@@H](C)CO)C[C@@H]1C
 : -6, 3
52. COc1ccc(CN(C)C[C@H]2Oc3ccc(NS(=O)(=O)c4cccs4)cc3C(=O)N([C@H](C)CO)C[C@@H]2C)cc1
 : 19, 13
53. O=C(N[C@H]1CC[C@@H](CCNS(=O)(=O)c2cccc(Cl)c2)O[C@H]1CO)c1ccccc1
 : -7, -7
54. Cc1ccc(S(=O)(=O)Nc2ccc3c(c2)CC(=O)N([C@@H](C)CO)C[C@H](C)[C@H](CN(C)S(=O)(=O)c2cn(C)cn2)O3)cc1
 : -21, 36
55. COc1cccc(S(=O)(=O)N[C@@H]2CC[C@H](CC(=O)NCc3ccccc3)O[C@H]2CO)c1
 : -3, -5
56. CCCN1[C@@H]2c3ccc(-c4ccc(F)cc4)c(=O)n3C[C@@H]2[C@@H](CO)[C@@H]1C(=O)N[C@H](C)c1ccccc1
 : -11, 12
57. C[C@H]1CCCCO[C@H](CN(C)C(=O)Nc2ccc(F)cc2)[C@@H](C)CN([C@@H](C)CO)C(=O)c2cc(NS(=O)(=O)c3ccccc3)ccc2O1
 : -21, -20
58. C[C@@H]1CN([C@@H](C)CO)C(=O)CCCn2cc(nn2)CO[C@H]1CN(C)Cc1ccccc1C(F)(F)F
 : 1, 3
59. C[C@@H]1CN([C@H](C)CO)C(=O)c2cc(/C=C/c3ccccc3)cnc2O[C@@H]1CN(C)C(=O)c1cnccn1
 : 7, -2
60. C[C@H]1CN([C@@H](C)CO)S(=O)(=O)c2ccc(Br)cc2O[C@H]1CN(C)C(=O)Nc1ccccc1F
 : -10, -1

Five of the compounds above, with tabs.
cpd	compound	Vaccinia stage	Vaccinia stage Venus
41	COCCNC(=O)[C@H]1[C@H](CO)[C@H]2Cn3c(ccc(C4=CCCCC4)c3=O)[C@@H]1N2C(=O)C1CC1	24	3
42	CNC[C@@H]1OCCCC[C@@H](C)Oc2ccc(NC(=O)Cc3ccccc3)cc2C(=O)N([C@H](C)CO)C[C@@H]1C	16	8
43	CCCC#Cc1ccc2c(c1)O[C@@H](CN(C)S(=O)(=O)c1cccc(F)c1)[C@H](C)CN([C@H](C)CO)S2(=O)=O	4	3
44	O=S(=O)(c1ccc(F)cc1)N1CCCCN2[C@@H](CO)[C@H](c3ccc(C#CC4CC4)cc3)[C@@H]2C1	?	.
45	COc1ccc(C#Cc2ccc3c(c2)[C@@H]2[C@@H](CCN2S(=O)(=O)c2ccc(OC)cc2)[C@H](CO)N3C)cc1	29	0

Continued:
Values run as follows: Vaccinia stage, Vaccinia stage Venus
61. C[C@@H]1CN([C@H](C)CO)C(=O)c2cc(C#CC3CC3)cnc2O[C@H]1CN(C)C(=O)Nc1ccccc1
 : 16, -2
62. O=C(C[C@@H]1C[C@@H]2c3cc(NC(=O)Nc4ccccc4F)ccc3O[C@@H]2[C@@H](CO)O1)NC1CCCCC1
 : -8, 1
63. C[C@@H](NC(=O)C[C@@H]1C=C[C@@H](NC(=O)C2CCC2)[C@H](CO)O1)c1ccccc1
 : -1, 12
64. C/C=C/c1ccccc1[C@@H]1[C@H](C#N)N(c2nc(CC)cs2)[C@H]1CO
 : -15, -15
65. COCC#Cc1ccc([C@H]2[C@@H](CO)N3C(=O)CN(C(=O)Nc4ccccc4F)C[C@H]23)cc1
 : 12, 6
66. COc1ccc(-c2cnc3c(c2)C(=O)N([C@@H](C)CO)C[C@@H](C)[C@H](CN(C)Cc2ccccn2)O3)cc1
 : 1, -6
67. C[C@H](CO)N1C[C@H](C)[C@@H](CN(C)S(=O)(=O)c2ccc(Cl)cc2)Oc2ccc(N(C)C)cc2CC1=O
 : -27, -21
68. CCCN(C)C[C@H]1Oc2cc(C#Cc3cccc(F)c3)ccc2S(=O)(=O)N([C@H](C)CO)C[C@@H]1C
 : -6, 1
69. COc1ccc(NC(=O)N(C)C[C@H]2Oc3ccc(NC(=O)CCC(F)(F)F)cc3C(=O)N([C@@H](C)CO)C[C@H]2C)cc1
 : 12, 5
70. C[C@@H]1CN([C@@H](C)CO)C(=O)c2cc(NS(C)(=O)=O)ccc2O[C@@H](C)CCCCO[C@@H]1CN(C)C
 : 0, -2
71. C[C@@H]1CN([C@H](C)CO)C(=O)c2c(c3ccccc3n2C)-c2ccccc2CO[C@@H]1CN(C)Cc1ccc(C(=O)O)cc1
 : 14, 15
72. C[C@@H]1CN([C@@H](C)CO)C(=O)c2cc(/C=C/c3ccccc3)cnc2O[C@@H]1CN(C)Cc1ccncc1
 : -5, 0
73. C[C@H](CO)N1C[C@H](C)[C@@H](CN(C)C(=O)Nc2ccc3c(c2)OCO3)OCCCC[C@H](C)Oc2ccc(NC(=O)Nc3cccc4ccccc34)cc2C1=O
 : 19, 17
74. CO[C@@H]1CC[C@H]2CCOc3c(C#N)cccc3C(=O)N(C)CCCC(=O)N(C)C[C@H]1O2
 : 7, -3

Whole records, looked up by structure:
C[C@@H](NC(=O)C[C@@H]1C=C[C@@H](NC(=O)C2CCC2)[C@H](CO)O1)c1ccccc1 is listed with Vaccinia stage = -1; Vaccinia stage Venus = 12
CCCN(C)C[C@H]1Oc2cc(C#Cc3cccc(F)c3)ccc2S(=O)(=O)N([C@H](C)CO)C[C@@H]1C is listed with Vaccinia stage = -6; Vaccinia stage Venus = 1
